HSV replic up – increases HSV replication in cells. AID 1956. HSV replication augmentation in cells, fold increase. maximum fold increase. hit rate 0.005% among 220,000;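 active = peak rise of 1.5-fold or more in the series; tested in PC3 cells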;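 note: first round at 10 µM; read as green reporter fluorescence; hits show the peak of a series up to 25 µM; 1 = signal of infected wells without compound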
GALR2 agonist – GALR2 (human) receptor agonism | activation, %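 (tested at 5 µM)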 | hit rate 0.48% among 140,000 | GALR2-expressing cells, agonist activation read-out;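 active = above mean plus 3 SD of all compounds, about 5% in these data, not always enough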;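 note: 0% = vehicle buffer wells and 100% = reference agonist at full effect; tested in CHO reporter cells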
Insulin prom inh – TRM-6 insulin promoter activity inhibition; TRM-6 cells (human fetal islet line), insulin promoter-eGFP reporter, imaging; reporter expression induced with tamoxifen; inhibition, % at 2 µM; hit rate 0.9% among 130,000; AID 1273;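 active = inhibition above the mean plus 3 SD, with well images judged a real hit on visual review, cut at about 60% in these data, passing the limit was not always enough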
RGS16-Gao – modulates binding between human RGS16 and Galphao | O15492+P09471 | bead-based flow cytometry RGS16-Galphao binding, fluorescence; actives lie on both sides | hit rate 0.38% among 220,000 | AID 1441 | binding response (% of control), % at 10 µM;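 active = below 25% or above 175%, edge rows of some plates excepted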;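 note: Galphao activated by GDP with aluminum fluoride before binding; 100% = wells without compound and 0% = beads without RGS; some results beyond the cut were filed as inactive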
PKD1 kinase inh – PKD1 (human) kinase inhibition; inhibition, %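 (about 10 µM by stock and volumes)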; Q15139; AID 797; hit rate 0.056% among 200,000; PKD1 kinase fluorescence polarization assay;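 active = inhibition of 50% or more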;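 note: controls were vehicle for no effect and a reference inhibitor for full effect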
Target sequence (Q15139 whole entry, looked up): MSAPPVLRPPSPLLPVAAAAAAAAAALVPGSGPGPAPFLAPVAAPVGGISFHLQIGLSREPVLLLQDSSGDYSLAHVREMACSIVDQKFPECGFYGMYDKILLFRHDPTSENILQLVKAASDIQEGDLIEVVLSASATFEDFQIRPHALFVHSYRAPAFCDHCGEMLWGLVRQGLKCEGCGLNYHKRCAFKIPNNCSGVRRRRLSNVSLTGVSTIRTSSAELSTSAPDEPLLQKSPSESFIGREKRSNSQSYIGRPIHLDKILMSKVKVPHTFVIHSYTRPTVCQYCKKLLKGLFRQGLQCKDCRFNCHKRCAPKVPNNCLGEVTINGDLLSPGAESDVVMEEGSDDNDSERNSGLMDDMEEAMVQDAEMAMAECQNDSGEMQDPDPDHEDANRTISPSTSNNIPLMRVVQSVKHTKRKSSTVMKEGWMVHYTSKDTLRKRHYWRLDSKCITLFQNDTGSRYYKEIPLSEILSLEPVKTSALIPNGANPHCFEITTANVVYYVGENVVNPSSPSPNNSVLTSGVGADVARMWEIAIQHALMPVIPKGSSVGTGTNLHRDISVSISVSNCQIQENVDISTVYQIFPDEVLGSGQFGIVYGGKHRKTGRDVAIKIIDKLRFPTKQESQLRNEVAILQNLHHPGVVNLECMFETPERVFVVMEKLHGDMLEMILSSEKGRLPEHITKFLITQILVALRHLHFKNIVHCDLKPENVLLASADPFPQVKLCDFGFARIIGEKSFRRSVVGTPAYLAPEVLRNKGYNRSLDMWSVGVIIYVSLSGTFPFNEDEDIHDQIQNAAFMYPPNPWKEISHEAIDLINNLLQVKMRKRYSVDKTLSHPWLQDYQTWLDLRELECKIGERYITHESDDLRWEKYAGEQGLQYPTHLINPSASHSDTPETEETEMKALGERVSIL
Insulin prom inh cell count – further read-out of Insulin prom inh, marked with its call; normalized cell count, %; measured here: cell count, toxicity; reference of the scale not given here;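 cells exposed to compound for 48 h; stained nuclei by imaging scaled within each plate; lower means fewer cells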
HSV replic up primary fold – also measured in HSV replic up; calls as there; fold increase; compound at 10 µM; measured here: primary screen fold increase 10 uM; tested in PC3 cells;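 GFP signal in the first replicate; 1 = infected wells without compound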
Active calls of the source: *; i = inactive; nt = not tested or not shown.

No. | Molecule | HSV replic up | HSV replic up primary fold | GALR2 agonist | Insulin prom inh
1 | O=C(NC(Cc1c[nH]c2ccccc12)C(=O)O)c1ccc(Br)cc1 (stereo not given) | i | 0.93 | nt | 25
2 | O=C(NCCCN1CCOCC1)NC1CCCCC1 | i | 0.9 | -1.1 | 16
3 | CCCCC(=O)Nc1cc2nn(-c3ccc(OC)cc3)nc2cc1C | i | 1.1 | -3.5 | -17
4 | O=C1C(=O)N(Cc2ccco2)C(c2cccc(Cl)c2)/C1=C(\O)c1ccc2c(c1)OCCO2 (stereo not given) | i | 0.95 | -1.2 | -19
5 | CCc1ccccc1N(C)S(=O)(=O)c1ccc2[nH]cc(C(=O)O)c(=O)c2c1 | i | 1 | nt | nt
6 | CC(C)c1nc(SCC(=O)N2CCCc3ccccc32)c2c(=O)n(C)c(=O)n(C)c2n1 | i | 1 | -2.4 | nt
7 | COc1ccc(CCn2c(SCC(=O)Nc3cc(C)on3)nc3ccccc3c2=O)cc1OC | nt | nt | -3.1 | nt
8 | COc1ccc(CN2CCN(CCC(C)C)C(CCO)C2)cc1Cn1cncn1 (stereo not given) | i | 0.86 | nt | nt

No. | Insulin prom inh cell count | RGS16-Gao | PKD1 kinase inh
1 | 134 | 104 | -10
2 | 101 | 106 | -8
3 | 94 | 105 | -8
4 | 115 | 101 | -4
5 | nt | 94 | -2
6 | nt | 100 | -1
7 | nt | 103 | -5
8 | nt | 108 | -5

Gathered by group, those above with an aryl methoxy group.
No. | Molecule | HSV replic up | HSV replic up primary fold | GALR2 agonist | Insulin prom inh
3 | CCCCC(=O)Nc1cc2nn(-c3ccc(OC)cc3)nc2cc1C | i | 1.1 | -3.5 | -17
7 | COc1ccc(CCn2c(SCC(=O)Nc3cc(C)on3)nc3ccccc3c2=O)cc1OC | nt | nt | -3.1 | nt
8 | COc1ccc(CN2CCN(CCC(C)C)C(CCO)C2)cc1Cn1cncn1 (stereo not given) | i | 0.86 | nt | nt

No. | Insulin prom inh cell count | RGS16-Gao | PKD1 kinase inh
3 | 94 | 105 | -8
7 | nt | 103 | -5
8 | nt | 108 | -5

Later entries.
No. | Molecule | HSV replic up | HSV replic up primary fold | GALR2 agonist | Insulin prom inh
9 | Cc1csc(NC(=O)CCCc2cccs2)n1 | i | 1 | nt | 6
10 | COc1ccccc1CCc1nnc(CCC(=O)N(C)Cc2cccc3cnccc23)o1 | i | 0.92 | nt | nt
11 | COC(=O)C1=C(C)NC(=O)/C1=C\c1ccco1 | i | 1.1 | -1.9 | -22
12 | Cc1ccc2cc(CCNC(=O)c3ccc(S(=O)(=O)N4CCCCC4)cc3)c(=O)[nH]c2c1 | i | 0.93 | nt | -5
13 | COc1nc(-c2ccccc2)ccc1-c1noc(C)n1 | i | 0.77 | -2.3 | 23
14 | Cc1ccc(S(=O)(=O)N(C)c2ccc3ccccc3c2)cc1 | i | 0.92 | nt | nt
15 | CCN(CC)CCCn1c(=S)[nH]c2cc(OC)c(OC)cc2c1=O | i | 0.9 | -1.3 | -19
16 | COc1ccc2c(c1)c(C(=O)CN1CCN(C(=O)c3ccco3)CC1)c(C)n2C | i | 0.95 | -1.4 | nt

No. | Insulin prom inh cell count | RGS16-Gao | PKD1 kinase inh
9 | 139 | 99 | 1
10 | nt | 62 | -3
11 | 61 | 101 | -2
12 | 101 | 102 | -1
13 | 113 | 94 | 2
14 | nt | 101 | 9
15 | 115 | 98 | -1
16 | nt | 101 | -2

Some values from the list.
no. 10 @ RGS16-Gao: 62
no. 11 @ HSV replic up primary fold: 1.1

More entries:
No. | Molecule | HSV replic up | HSV replic up primary fold | GALR2 agonist | Insulin prom inh
17 | Nc1cc(S(=O)(=O)Nc2ccc(Br)cc2)ccc1Cl | i | 0.97 | nt | nt
18 | Cc1noc(C)c1C(=O)Nc1ccc(Cl)cc1C(F)(F)F | i | 0.89 | -1.3 | -5
19 | Cc1ccccc1NC(=O)c1cccc(S(=O)(=O)Oc2ccc([N+](=O)[O-])cc2)c1 | i | 0.9 | -2.9 | nt
20 | COc1ccc(CCNC(=O)C2CCN(S(C)(=O)=O)CC2)cc1 | i | 0.86 | -0.4 | -9
21 | CCCN(C(=O)CSc1cc(-c2ccccc2)c2ccc(OC)cc2n1)C1CCS(=O)(=O)C1 (stereo not given) | i | 1.1 | -0.1 | nt
22 | CC(C)C(=O)N1CCc2cc(-c3csc(N)n3)ccc21 | i | 0.74 | -1.0 | -42
23 | CSC1CCCCC1(O)CSc1nc2ccccc2o1 (stereo not given) | i | 0.9 | -0.5 | 10
24 | C/C(=N\NC(=S)NCc1ccccc1)c1cccs1 | i | 0.92 | nt | nt

No. | Insulin prom inh cell count | RGS16-Gao | PKD1 kinase inh
17 | nt | 102 | nt
18 | 105 | 66 | -7
19 | nt | 102 | -1
20 | 116 | 101 | 14
21 | nt | 96 | 6
22 | 78 | 102 | -18
23 | 204 | 104 | 0
24 | nt | 97 | -1

(more compounds)
No. | Molecule | HSV replic up | HSV replic up primary fold | GALR2 agonist | Insulin prom inh
25 | O=S(=O)(c1ccc(NCCc2c[nH]c3ccccc23)nc1)N1CCOCC1 | i | 1.1 | 0.4 | nt
26 | Cc1ccc(C(C(=O)NC(C)(C)C)N(CCCN2CCOCC2)C(=O)c2ccc(-c3ccccc3)[nH]2)o1 (stereo not given) | i | 0.91 | nt | 64
27 | O=C(CCC(=O)OCC(=O)c1ccc(Cl)cc1)NC1CCCCC1 | i | 0.94 | -1.6 | -28
28 | CCN(Cc1ccncc1)C(=O)c1ccc2c(c1)S(=O)(=O)c1ccccc1C2=O | i | 0.97 | nt | nt
29 | CCOC(=O)c1c(/N=C/C2=C(O)CC(C)(C)CC2=O)sc(C(C)=O)c1C | i | 0.78 | nt | nt
30 | CO/N=C\CC(=O)Nc1ccc(Cl)c(Cl)c1 | i | 0.71 | nt | 5
31 | Cc1nc2ccc(NC(=O)NCCO)cc2s1 | i | 1 | -1.0 | 36
32 | COc1cc(NC(=O)c2cc(C)nc3ccccc23)cc(OC)c1OC | i | 0.9 | nt | nt

No. | Insulin prom inh cell count | RGS16-Gao | PKD1 kinase inh
25 | nt | 98 | 4
26 | 122 | 97 | -1
27 | 122 | 99 | 1
28 | nt | 97 | -5
29 | nt | 102 | 9
30 | 97 | 93 | 0
31 | 87 | 102 | -4
32 | nt | 102 | -4

Rewritten as labelled records: two of the compounds above
31: Cc1nc2ccc(NC(=O)NCCO)cc2s1
  HSV replic up: i
  HSV replic up primary fold: 1
  GALR2 agonist: -1.0
  Insulin prom inh: 36
  Insulin prom inh cell count: 87
  RGS16-Gao: 102
  PKD1 kinase inh: -4

32: COc1cc(NC(=O)c2cc(C)nc3ccccc23)cc(OC)c1OC
  HSV replic up: i
  HSV replic up primary fold: 0.9
  GALR2 agonist: nt
  Insulin prom inh: nt
  Insulin prom inh cell count: nt
  RGS16-Gao: 102
  PKD1 kinase inh: -4

Continuation:
No. | Molecule | HSV replic up | HSV replic up primary fold | GALR2 agonist | Insulin prom inh
33 | Cc1cc(NS(=O)(=O)c2ccc(NC(=O)/C=C/c3ccco3)cc2)nc(C)n1 | i | 1.2 | nt | nt
34 | CCOc1ccccc1OCCCCN1CCCC1 | i | 0.96 | -0.5 | -16
35 | COc1ccccc1NC(=O)/C(=C\c1cccs1)NC(=O)c1ccco1 | i | 0.98 | nt | nt
36 | COc1cc(NC(=O)CN2C(=O)c3ccccc3Sc3ccc(C(=O)N4CCOCC4)cc32)cc(OC)c1OC | i | 1 | nt | 27
37 | CCC(=O)Nc1nnc(SCCOC)s1 | i | 0.91 | -1.4 | 41
38 | CCOc1ccccc1-c1cc(-c2n[nH]c(=S)n2CC)c2ccccc2n1 | i | 1 | -1.9 | -13
39 | Cc1cc(/C=N/NC(N)=S)c(C)n1-c1ccc(Cl)cc1 | i | 0.95 | -0.3 | 46
40 | CCC1CCC2(CC1)NC(=O)N(CC(=O)Nc1cc(C)on1)C2=O (stereo not given) | i | 0.95 | -0.7 | 0

No. | Insulin prom inh cell count | RGS16-Gao | PKD1 kinase inh
33 | nt | 98 | nt
34 | 88 | 100 | 3
35 | nt | 124 | nt
36 | 83 | 108 | 2
37 | 139 | 104 | -8
38 | 81 | 98 | -14
39 | 115 | 61 | -6
40 | 66 | 81 | -9

Overlap with the part before: 4 entries, followed by the next part.
No. | Molecule | HSV replic up | HSV replic up primary fold | GALR2 agonist | Insulin prom inh
37 | CCC(=O)Nc1nnc(SCCOC)s1 | i | 0.91 | -1.4 | 41
38 | CCOc1ccccc1-c1cc(-c2n[nH]c(=S)n2CC)c2ccccc2n1 | i | 1 | -1.9 | -13
39 | Cc1cc(/C=N/NC(N)=S)c(C)n1-c1ccc(Cl)cc1 | i | 0.95 | -0.3 | 46
40 | CCC1CCC2(CC1)NC(=O)N(CC(=O)Nc1cc(C)on1)C2=O (stereo not given) | i | 0.95 | -0.7 | 0
41 | CCC(=O)n1nc(-c2ccc(Cl)cc2)nc1N | i | 0.85 | nt | 50
42 | CSCCCNC(=S)N1CCc2ccccc2C1 | i | 1 | nt | nt
43 | Cn1nnc2ccccc2c1=O | i | 0.95 | nt | nt
44 | O=C(O)CC(=O)Nc1ccc(Oc2ccc(C(F)(F)F)cn2)c(Cl)c1 | nt | nt | nt | 14
45 | COc1ccccc1C(C[N+](=O)[O-])c1c[nH]c2ccccc12 (stereo not given) | i | 0.92 | nt | nt
46 | O=C(CSc1ncn[nH]1)Nc1cccc(S(=O)(=O)N2CCCCCC2)c1 | i | 0.93 | -1.2 | -46
47 | Cc1ccnc(NC(=O)CCC(=O)N(CC(=O)NC(C)(C)C)C2CCCC2)c1 | i | 0.96 | -1.8 | -230
48 | COc1cccc2c1C(=O)O/C2=C/c1ccc2c(c1)OCO2 | i | 1 | -0.9 | -40

No. | Insulin prom inh cell count | RGS16-Gao | PKD1 kinase inh
37 | 139 | 104 | -8
38 | 81 | 98 | -14
39 | 115 | 61 | -6
40 | 66 | 81 | -9
41 | 132 | 99 | -1
42 | nt | 100 | -3
43 | nt | 106 | -3
44 | 190 | 101 | -3
45 | nt | 102 | nt
46 | 105 | 97 | 3
47 | 75 | 105 | -9
48 | 130 | 98 | -5

Further structures follow.
No. | Molecule | HSV replic up | HSV replic up primary fold | GALR2 agonist | Insulin prom inh
49 | CCN1C(=O)CSc2ccc(C(=O)OC)cc21 | nt | nt | -0.3 | -20
50 | Cc1ccc(NC(=O)c2c(C)noc2-c2snnc2C)cc1 | i | 0.91 | nt | nt
51 | Cc1cccc(OCC(=O)Nc2cc(C)on2)c1 | i | 0.88 | -0.5 | 38
52 | O=C(O)c1cc(/C=C/C(=O)c2cc(F)ccc2O)c2c(c1)COCO2 | i | 1 | nt | nt
53 | O=C(NC(=S)NC1CC1)c1cccnc1 | i | 0.92 | -3.4 | 59
54 | COc1ccccc1NC(=O)Nc1cccnc1 | i | 0.73 | nt | nt
55 | COc1cc(/C=N/NC(=O)C(C)n2nnc3ccccc32)ccc1O (stereo not given) | i | 0.96 | -1.2 | 10
56 | CC(C)CC(NC(N)=O)C(=O)OCC(=O)N(Cc1ccccc1)Cc1ccccc1 (stereo not given) | i | 0.84 | nt | nt

No. | Insulin prom inh cell count | RGS16-Gao | PKD1 kinase inh
49 | 108 | 96 | 2
50 | nt | 92 | nt
51 | 96 | 104 | -6
52 | nt | 102 | nt
53 | 71 | 91 | -4
54 | nt | 99 | 5
55 | 49 | 100 | 5
56 | nt | 113 | 0

(more compounds)
No. | Molecule | HSV replic up | HSV replic up primary fold | GALR2 agonist | Insulin prom inh
57 | Cc1c(N2C(=O)CSC2c2ccc([N+](=O)[O-])cc2)c(=O)n(-c2ccccc2)n1C (stereo not given) | i | 0.84 | nt | nt
58 | CCOc1cccc(-c2nnc(SCC(=O)Nc3cc(OC)cc(OC)c3)n2N)c1 | i | 0.83 | -0.5 | 16
59 | Cc1nn(Cc2ccc(F)cc2)c(C)c1NC(=O)c1cc2ncc(Br)cn2n1 | i | 0.91 | nt | nt
60 | NC(=O)CC[C@@H]1NC(=O)[C@@H]2CCCN2C(=O)c2cc([N+](=O)[O-])cc(F)c2NCCC[C@@H](C(N)=O)NC1=O | i | 0.73 | -1.2 | 20
61 | COc1ccc(S(=O)(=O)N2CCOCC2)cc1NC(=O)CSc1nnc2ccccn12 | i | 0.88 | nt | 0
62 | Cc1ccc(NC(=O)c2cc(-c3ccco3)on2)cc1 | i | 1.2 | 0.1 | nt
63 | O=C(Nc1ccc(-c2nc3c(ccc4ccccc43)o2)cc1)c1ccco1 | i | 0.89 | 1.9 | -429
64 | COC(=O)c1cc2ccsc2n1CC(=O)Nc1cc(C)cc(C)c1 | nt | nt | 9.6 | -24
65 | Cc1ccccc1CSCCNS(C)(=O)=O | i | 0.8 | -2.1 | -60

No. | Insulin prom inh cell count | RGS16-Gao | PKD1 kinase inh
57 | nt | 165 | nt
58 | 76 | 108 | -7
59 | nt | 109 | -8
60 | 70 | 106 | -3
61 | 166 | 99 | -2
62 | nt | 99 | 6
63 | 73 | 95 | 5
64 | 107 | 107 | -15
65 | 87 | 29 | 4

Source: PubChem
